Bioassay records from PubChem BioAssay.
Sa growth 42C = S. aureus growth inhibition; S. aureus RN4220 growth, OD600, 20 h, 42 °C; hits give low values; AID 720641; hit rate 0.53% among 170,000; relative growth, % (no concentration beside the values);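 active means growth at 42 °C up to 50% and 20 or more points under that at 30 °C, or under 10% at both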;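 further: 300 nL library stock went into each well; scaled to the means of positive and negative controls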
HCMV UL50-53 inh = inhibitors of HCMV UL50-UL53 nuclear egress complex interaction; HTRF UL50-UL53 interaction, normalized percent inhibition; inhibition, % (no concentration beside the values); hit rate 0.15% among 190,000;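 active means both replicates at 50% or more, plus weaker picks with an unusually low signal ratio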;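 further: stock transfer was 100 nL into about 20 µL; 0% = negative control wells and 100% = wells with untagged competitor protein; inactives centre near -12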
GIV Gai3 FP = GIV-Galpha-i interaction inhibition; P08753; Galpha-i3/FITC-GIV peptide fluorescence polarization, 90 min; hits give low values; scaled: aluminum fluoride 0%, vehicle 100%; percent of control (FP), % (concentration not given with the values); hit rate 0.42% among 210,000; AID 1224905;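 active means replicate mean at 85% of control or lower, very high polarization wells dropped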;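 further: wells of about 15 µL received 100 nL stock; the first replicate is given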
Target sequence (P08753 whole entry, looked up): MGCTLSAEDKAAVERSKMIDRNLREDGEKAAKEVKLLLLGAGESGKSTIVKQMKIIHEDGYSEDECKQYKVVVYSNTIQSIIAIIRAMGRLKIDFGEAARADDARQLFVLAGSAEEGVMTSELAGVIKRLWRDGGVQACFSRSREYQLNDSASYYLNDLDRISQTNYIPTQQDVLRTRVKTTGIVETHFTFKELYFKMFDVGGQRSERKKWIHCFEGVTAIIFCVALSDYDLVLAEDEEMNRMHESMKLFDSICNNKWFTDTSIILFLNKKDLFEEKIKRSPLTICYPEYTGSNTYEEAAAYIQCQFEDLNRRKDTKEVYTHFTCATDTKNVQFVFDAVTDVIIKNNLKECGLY
Sa growth 42C second temp = also measured in Sa growth 42C; calls as there; relative growth, %; measured here: growth at 30 °C;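 optical density after 20 h as mean of two plates; 100% = untreated growth and lower means inhibition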
Numbers without * were called inactive; . = not tested or not shown; & = joins results of further samples.

| cpd | mol | Sa growth 42C | Sa growth 42C second temp |
| --- | --- | --- | --- |
| 1 | Cc1cccn2c(=O)cc(COc3cccc(NC(=O)Nc4cccc(Cl)c4)c3)nc12 | 114 | 104 |
| 2 | O=C(O)C1CCCN1S(=O)(=O)c1ccc2ccccc2c1 (configuration not stated) | 126 | 108 |
| 3 | CN(C)c1ccc(Nc2ncnc3sc4c(c23)CCCC4)cc1 | 109 | 101 |
| 4 | N/C(=N\O)c1c(O)c2ccccc2[nH]c1=O | 100 | 97 |
| 5 | O=C(NCCCN1CCN(c2ccc(F)cc2)CC1)c1ccc2nc(Cc3ccccc3)oc2c1 | 104 | 90 |
| 6 | CC(C)C(NC(=O)C1CCCCC1)C(=O)Nc1ccccn1 (configuration not stated) | 83 | 86 |
| 7 | O=C(Nc1ccc(-c2nc3ccccc3c(=O)o2)cc1)C1CC1 | 19 | 12 |
| 8 | CCOC(=O)C(C#N)C1C(=O)Nc2ccccc21 (configuration not stated) | 87 | 96 |
| 9 | NC(=O)CC1C(=O)N(c2ccc(Cl)cc2)C(=S)N1Cc1cccnc1 (configuration not stated) | 115 | 94 |
| 10 | Nc1ccc(S(=O)(=O)N2CCCCCC2)cc1 | 91 | 87 |
| 11 | CC(C)n1ncc2c(C(=O)N(C)Cc3ccco3)cc(-c3ccccc3)nc21 | 113 | 84 |
| 12 | COc1cc(-n2c(=O)c3ccccc3n(Cc3cccc(Cl)c3)c2=O)cc(OC)c1OC | 88 | 85 |

| cpd | HCMV UL50-53 inh | GIV Gai3 FP |
| --- | --- | --- |
| 1 | . | 102&91 |
| 2 | -2 | 99 |
| 3 | . | 105 |
| 4 | 3 | 96 |
| 5 | . | 104 |
| 6 | -12 | 100 |
| 7 | -15 | 108 |
| 8 | -6 | . |
| 9 | -13 | 107 |
| 10 | -14 | 105 |
| 11 | -9 | . |
| 12 | -8 | 107 |

More compounds follow.
| cpd | mol | Sa growth 42C | Sa growth 42C second temp |
| --- | --- | --- | --- |
| 13 | Cc1ccc2nc(SC(C)C(=O)NCc3ccco3)[nH]c2c1 (configuration not stated) | 92 | 95 |
| 14 | COc1cccc(CNC(=O)c2[nH]c3cc(C)ccc3c2Sc2ccccc2)c1 | 124 | 94 |
| 15 | Nc1nc(CSCc2ccco2)nc(N2CCCCC2)n1 | 84 | 81 |
| 16 | COc1ccc(-c2noc(CC(=O)NCCN(C)C)n2)cc1 | 94 | 84 |
| 17 | O=S(=O)(NCCO)c1cccc2cccnc12 | 113 | 95 |
| 18 | CCOC(=O)c1c(-c2ccc(C)cc2)csc1NC(=O)Cc1coc2c(C)c(C)ccc12 | . | . |
| 19 | O=C(O)CCNC(=O)C(c1ccccc1)c1ccccc1 | 114 | 90 |
| 20 | O=C1Nc2ccccc2N(O)N1c1ccccc1Cl | 110 | 73 |
| 21 | Cc1ccc(C2CCN(C(=S)NCc3ccccc3)C2)cc1 (configuration not stated) | 126 | 96 |
| 22 | CCN(CC)C(=O)C(c1ccccc1)n1nnc(-c2ccc(Br)cc2)n1 (configuration not stated) | 172 | 91 |
| 23 | CCOC(=O)C1CCC(CNC(=O)NCCn2nnc3cc(C(=O)N(C)C)ccc32)CC1 (configuration not stated) | . | . |
| 24 | CCOc1ccc(N2C(=O)CC(Sc3nc(C)c(CC)c(C)c3C#N)C2=O)cc1 (configuration not stated) | . | . |

| cpd | HCMV UL50-53 inh | GIV Gai3 FP |
| --- | --- | --- |
| 13 | -11 | . |
| 14 | -19 | 102 |
| 15 | 0 | 106 |
| 16 | -38 | 105 |
| 17 | . | 102 |
| 18 | -28 | 105 |
| 19 | 22 | 99 |
| 20 | -6 | 103 |
| 21 | . | 103 |
| 22 | -10 | . |
| 23 | -22 | 101 |
| 24 | -20 | 102 |

More records
| cpd | mol | Sa growth 42C | Sa growth 42C second temp |
| --- | --- | --- | --- |
| 25 | Cc1cc2c(n1-c1ccc(C(=O)NCc3ccc(OC(C)C)cc3)cc1)CCCC2 | 94 | 95 |
| 26 | O=C(Cn1c(=O)oc2ccccc21)NCc1ccc(Cl)cc1 | 90 | 85 |
| 27 | Cc1cn2c(=O)cc(COC(=O)c3ccc(NC(=O)COc4ccc(C)c(C)c4)cc3)nc2s1 | 94 | 88 |
| 28 | CC1CSc2ccc(S(=O)(=O)N3CCCC3)cc2N(CC(=O)N(C)c2ccccc2)C1=O (configuration not stated) | . | . |
| 29 | O=C(Nc1cccc(C(F)(F)F)c1)c1cccc(S(=O)(=O)N2CCCC2)c1 | 149 | 94 |
| 30 | CCCn1c(NC(C)=O)nc2ccccc21 | . | . |
| 31 | CC(=O)NC1(c2cccc(F)c2)CCN(C(=O)NCc2ccccc2)CC1 | 73 | 87 |
| 32 | O=C(CSc1nc(Nc2ccc(F)cc2)c2ccccc2n1)c1ccc(F)cc1 | 122 | 100 |
| 33 | CC(C)(C)OC(=O)N1CCC(CNS(=O)(=O)c2ccc3c(c2)OCCO3)CC1 | 133 | 86 |
| 34 | N#C/C(=C\Nc1ccc(OC(F)(F)F)cc1)c1nc2ccccc2[nH]1 | 91 | 80 |
| 35 | O=C(Nc1ccccc1-c1nc2ccccc2s1)C1CCCN1S(=O)(=O)c1cccs1 (configuration not stated) | 118 | 104 |
| 36 | CCSc1nnc(C2CCN(Cc3ccncc3)CC2)n1C | 99 | 88 |

| cpd | HCMV UL50-53 inh | GIV Gai3 FP |
| --- | --- | --- |
| 25 | . | 101 |
| 26 | . | 96 |
| 27 | . | 102 |
| 28 | -13 | 100 |
| 29 | -12 | 105 |
| 30 | 0 | 103 |
| 31 | 8 | 97 |
| 32 | . | 113 |
| 33 | -15 | 104 |
| 34 | -7 | 98 |
| 35 | -14 | 106 |
| 36 | -4 | 98 |

(list continues)
| cpd | mol | Sa growth 42C | Sa growth 42C second temp |
| --- | --- | --- | --- |
| 37 | c1ccc(-n2cnnc2)cc1 | 109 | 79 |
| 38 | Cc1ccc(CNC(=O)CC(C)C)cc1 | 115 | 95 |
| 39 | Cc1cc(=O)[nH]c(Nc2cccc(Br)c2)n1 | 95 | 84 |
| 40 | FC(F)(F)Oc1ccccc1-c1nnc(-c2ccccc2Cl)o1 | 89 | 79 |
| 41 | c1ccc(CN2CCC(c3nc4ccccc4[nH]3)CC2)cc1 | 102 | 91 |
| 42 | Cc1ccc(-c2nnc(SCc3cc(=O)n4[nH]c(-c5ccccc5)nc4n3)n2C)cc1 | . | . |
| 43 | C=CCC1CC(=O)N(c2ccc(C)c(F)c2)C1=O (configuration not stated) | 99 | 104 |
| 44 | N#CCCN(Cc1ccco1)C(=O)Nc1ccccc1 | 99 | 97 |
| 45 | O=C(O)CN1C(=O)CCC1=O | 83 | 112 |
| 46 | CCOc1ccc(N(C)S(=O)(=O)c2ccc3c(c2)CCCN3C(C)=O)cc1 | 89 | 81 |
| 47 | CCOc1ccc2oc(=O)cc(Cn3c(=O)c(OCC)nc4cccnc43)c2c1 | 105 | 84 |
| 48 | CC(C)CCn1c(=O)c2sccc2n2c(CCCC(=O)Nc3ccc(F)c(Cl)c3)nnc12 | 113 | 86 |

| cpd | HCMV UL50-53 inh | GIV Gai3 FP |
| --- | --- | --- |
| 37 | -26 | . |
| 38 | -4 | . |
| 39 | 3 | 103 |
| 40 | -30 | 101 |
| 41 | -13 | 104 |
| 42 | 6 | 110 |
| 43 | 3 | 104 |
| 44 | -21 | 108 |
| 45 | 11 | 98 |
| 46 | . | 101 |
| 47 | -29 | 102 |
| 48 | . | 96 |

Additional results.
| cpd | mol | Sa growth 42C | Sa growth 42C second temp |
| --- | --- | --- | --- |
| 49 | CCN(CC)Cc1c(C(=O)N/N=C(\C)c2ccc(O)cc2)nnn1-c1nonc1N | 87 | 96 |
| 50 | CCOC(=O)c1c(NCC(=O)N2CCOCC2)sc2c1CC(C)(C)NC2(C)C | 96 | 92 |
| 51 | Cc1c(C(=O)Nc2cccc(F)c2)sc2nc(-c3cc4ccccc4oc3=O)[nH]c(=O)c12 | 103 | 79 |
| 52 | O=C(Cn1cc(S(=O)(=O)N2CCCC2)ccc1=O)Nc1ccc(N2CCCCC2)cc1 | 89 | 86 |
| 53 | N#CC(C#N)=Cc1cn(CCOc2ccc3c(c2)OCO3)c2ccccc12 | 95 | 105 |
| 54 | COc1ccc(Oc2nc(C)nc3sc4c(c23)CCCC4)cc1 | . | . |
| 55 | CCCn1c(SCC(=O)N2CCC(C)Sc3ccccc32)n[nH]c1=O (configuration not stated) | 91 | 96 |
| 56 | COc1cccc(NC(=O)CCc2c(C)nc3ncnn3c2C)c1 | 107 | 93 |
| 57 | O=C(Cn1ccn2nc(-c3ccc4c(c3)OCO4)cc2c1=O)NCc1ccccc1Cl | . | . |
| 58 | Cc1ccc(NC(=O)CC2Oc3ccccc3NC2=O)cc1 (configuration not stated) | 106 | 91 |
| 59 | CC(C)(C)N1CC(c2nc3ccccc3[nH]2)CC1=O (configuration not stated) | 106 | 93 |
| 60 | S=c1nc(-c2cccs2)[nH]n1CN1CCCC1 | 52 | 67 |

| cpd | HCMV UL50-53 inh | GIV Gai3 FP |
| --- | --- | --- |
| 49 | -15 | 106 |
| 50 | 3 | . |
| 51 | -8 | 97 |
| 52 | -15 | . |
| 53 | 13 | 99 |
| 54 | -17 | 103 |
| 55 | -6 | . |
| 56 | -34 | 101 |
| 57 | -1 | 106 |
| 58 | . | 99 |
| 59 | 4 | 99 |
| 60 | -40 | . |

More records.
| cpd | mol | Sa growth 42C | Sa growth 42C second temp |
| --- | --- | --- | --- |
| 61 | COc1ccc(Nc2nn3c(=O)c4cc5c(cc4nc3s2)OCO5)c(OC)c1 | 98 | 105 |
| 62 | Cc1c(NS(=O)(=O)c2ccccc2)c(-n2cnnc2)nn1C | . | . |
| 63 | O=C(OCc1cc(=O)n2cc(Br)ccc2n1)C1COc2ccccc2O1 (configuration not stated) | 93 | 98 |
| 64 | COC(=O)c1ccc(COc2ccc(F)cc2)cc1 | 107 | 97 |
| 65 | CCN(Cc1nc2cc(OC)c(OC)cc2c(=O)[nH]1)C(=O)c1ccc(S(=O)(=O)N(C)C)cc1 | 77 | 92 |
| 66 | O=C(COc1ccc(Cl)cc1)Nc1ccc2nc(SCC(=O)N3CCOCC3)sc2c1 | 91 | 72 |
| 67 | CCC(=O)NCCSc1ncc(-c2ccccc2)[nH]1 | 107 | 100 |
| 68 | Cc1cc(C)c(S(=O)(=O)N2CCCC2c2ccc(Cl)cc2)c(C)c1 (configuration not stated) | . | . |
| 69 | NS(=O)(=O)c1ccc(CCNC(=O)CCC(=O)N2CC3CCCN3c3ccccc32)cc1 (configuration not stated) | . | . |
| 70 | CCCN(CCC)CCNC(=O)CN1C(=O)COc2ccc(S(=O)(=O)N3CCOCC3)cc21 | 100 | 95 |
| 71 | O=C(NCc1cccc(Cl)c1)c1cccc(-n2nnc3cccnc32)c1 | . | . |
| 72 | O=S(=O)(Nc1ccc(O)cc1)c1ccc2oc3ccc(S(=O)(=O)Nc4ccc(O)cc4)cc3c2c1 | 72 | 83 |

| cpd | HCMV UL50-53 inh | GIV Gai3 FP |
| --- | --- | --- |
| 61 | -167 | 102 |
| 62 | -26 | 99 |
| 63 | -72 | . |
| 64 | -6 | 98 |
| 65 | -7 | . |
| 66 | -28 | 105 |
| 67 | 6 | 106 |
| 68 | 12 | 104 |
| 69 | -14 | 111 |
| 70 | -16 | 101 |
| 71 | -33 | 115 |
| 72 | 3 | 101 |

Additional compounds.
| cpd | mol | Sa growth 42C | Sa growth 42C second temp |
| --- | --- | --- | --- |
| 73 | O=C(NCC(c1cccnc1)N1CCN(Cc2ccccc2)CC1)C(=O)Nc1ccc(Cl)cc1 (configuration not stated) | 112 | 70 |
| 74 | Cn1c(=O)c2c(nc(NN=C3CCCCC3)n2C)n(C)c1=O | 86 | 86 |
| 75 | Cc1ccccc1CNC(=O)C1=Cc2ccccc2OC1 | 92 | 90 |
| 76 | COc1ccc(N2CCN(C(=O)c3ccc4c(c3)N(Cc3cc(C)ccc3C)C(=O)c3ccccc3S4=O)CC2)cc1 (configuration not stated) | 127 | 107 |
| 77 | CCOc1ccc(Nc2sc(C(=O)c3cccc(OC)c3)c(N)c2S(=O)(=O)c2ccccc2)cc1 | 110 | 96 |
| 78 | COc1ccccc1-n1c(=O)n(C)c2c(C(N)=O)nc(-c3cc(OC)c(OC)c(OC)c3)nc21 | 98 | 94 |
| 79 | COc1ccc(CN(C)c2ccc(-c3nc(-c4ccc(OC)c(OC)c4)no3)cc2[N+](=O)[O-])cc1 | 97 | 87 |
| 80 | O=C(Nc1cccc(C(F)(F)F)c1)c1ccccn1 | 95 | 91 |
| 81 | CC1CCCCN1C(=O)c1cc2ccccc2oc1=O (configuration not stated) | 100 | 93 |
| 82 | COc1ccc(CCNC(=O)CCCn2ncn3c(cc4occc43)c2=O)c(OC)c1 | 97 | 82 |
| 83 | c1ccc(CN2CCN(CCN3CCCCC3)CC2)cc1 | 98 | 75 |

| cpd | HCMV UL50-53 inh | GIV Gai3 FP |
| --- | --- | --- |
| 73 | -12 | 105 |
| 74 | -47 | 100 |
| 75 | . | 99 |
| 76 | -31 | 100 |
| 77 | . | 97 |
| 78 | . | 107 |
| 79 | -24 | 100 |
| 80 | -14 | . |
| 81 | -41 | 100 |
| 82 | -22 | 103 |
| 83 | -11 | 99 |
